Screens: PubChem, National Center for Advancing Translational Sciences (NCATS)
Cruzain noTriton: inhibitors of Trypanosoma cruzi cruzain without detergent; purified cruzain, Z-FR-AMC fluorescence, no detergent; AID 1476; 200,000 compounds, 2.3% hits; Potency, µM, inactives show max response, negative = inhibition, hits mostly inhibitors; P25779; active = well fitted curve in the direction sought with a large enough effect; inconclusive = small, poorly fitted or top-dose-only effect, or another doubt; inactive = no such curve, though single readings can be large; an effect the other way counts as inactive or inconclusive;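 note: plate controls were enzyme without inhibitor for no effect and buffer without enzyme for full effect; nearly all actives have a fitted effect of over 40% in size; top concentration of the series not given in the record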
Target sequence (P25779 123-467 limits assumed): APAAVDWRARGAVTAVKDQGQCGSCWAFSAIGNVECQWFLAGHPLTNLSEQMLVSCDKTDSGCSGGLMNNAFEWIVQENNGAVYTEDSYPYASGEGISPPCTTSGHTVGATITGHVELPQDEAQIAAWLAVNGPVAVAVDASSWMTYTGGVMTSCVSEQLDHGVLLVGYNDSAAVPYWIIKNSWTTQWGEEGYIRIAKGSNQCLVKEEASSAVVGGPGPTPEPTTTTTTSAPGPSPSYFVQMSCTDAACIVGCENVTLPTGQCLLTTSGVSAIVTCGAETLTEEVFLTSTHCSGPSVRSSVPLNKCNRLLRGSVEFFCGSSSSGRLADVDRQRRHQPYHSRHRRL
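Purified cruzain at 1.5 nM, pre-incubated 15 min with compound at room temperature in 100 mM sodium acetate pH 5.5, 5 mM DTT, 0.00005% Triton X-100. Reaction started with 2 uM Z-FR-AMC; AMC fluorescence increase over 60 s gives rate.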
Cruzain inh Det: cruzain (T. cruzi) inhibition with detergent; P25779; purified cruzain, Z-FR-AMC fluorescence, 0.01% Triton; Potency, µM, for the others: max response, negative = inhibition, most hits filed as inhibitors; 200,000 compounds, 0.43% hits; AID 1478; active = well fitted curve in the direction sought with a large enough effect; inconclusive = small, poorly fitted or top-dose-only effect, or another doubt; inactive = no such curve, though single readings can be large; an effect the other way counts as inactive or inconclusive;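 note: plate controls were neutral wells for no effect and buffer without enzyme for full effect; nearly all actives have a fitted effect of over 40% in size; top concentration of the series not given in the record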
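In this qHTS format, compounds are incubated with 1.5 nM cruzain for 15 min at room temperature before 2 uM Z-FR-AMC is added. Release of AMC is followed at 360/450 nm, and progress is taken as the 60 s fluorescence difference.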
SARS PLP yeast: SARS-CoV PLP inhibition in yeast. Potency, µM (top dose mostly 32.9 µM), without a hit: at the highest dose activity, positive = growth rescue. S. cerevisiae expressing SARS-CoV PLpro, growth rescue; control for the full effect not named in the record. AID 485353. 330,000 compounds, 0.19% hits; note: 0% is about no effect; nearly all actives have a fitted effect of over 55% in size; growth read by luminescence after 48 h
StopGo reporter: FMDV 2A StopGo reporter, luciferase signal. 410,000 compounds, 1.2% hits. Potency, µM (doses to about 57.9 µM), without a hit: at the top dose signal change, negative = less light. AID 1159524. human cells with a luciferase reporter of 2A StopGo recoding; control for the full effect not named in the record; active = well fitted falling curve with a large enough effect; inconclusive = small, poorly fitted or top-dose-only effect; inactive = no such curve, though single readings can be large or run the other way; tested in HEK293T cells; note: % is set by controls: 0 for no effect and ±100 for the full control effect; nearly all actives have a fitted effect of over 45% in size; luciferase light after 4 h
NS1 function inh: influenza NS1 inhibition; Potency, µM (highest dose often 46.1 µM), for inactives: top-dose activity, positive = more growth; AID 2326; S. cerevisiae slowed by influenza A NS1, growth recovery by OD600; 270,000 compounds, 0.4% hits; note: actives are rising curves; nearly all actives have a fitted effect of over 50% in size
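Growth recovery, yeast-based: influenza A NS1 expressed in S. cerevisiae causes slow growth, and suppressors are detected by OD600. The parent strain without NS1 is used as positive control.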
LASV entry inh: inhibitors of Lassa virus binding or cell entry. Lassa virus pseudotype entry inhibition, cell reporter; control for the full effect not named in the record. Potency, µM (highest dose often 37.9 µM), inactives show top-dose activity change, negative = inhibition, most hits filed as inhibitors. 300,000 compounds, 1.2% hits; active means well fitted inhibition curve with a large enough effect; inconclusive means small, poorly fitted or top-dose-only effect, or effect the other way; inactive means flat fitted curve, though single readings scatter; tested in HEK293 cells; note: % is set by controls: 0 for no effect and ±100 for the full control effect; nearly all actives have a fitted effect of over 50% in size; luciferase read-out
Marburg entry inh: Marburg virus entry inhibition | Marburg virus pseudotyped entry inhibition, cell reporter; control for the full effect not named in the record; about a third of the inactives were read at about 46 µM | AID 540276 | Potency, µM (highest dose often 37.8 µM), inactives show at the top dose activity change, negative = inhibition, hits mostly inhibitors | 300,000 compounds, 1.8% hits; active = well fitted inhibition curve with a large enough effect; inconclusive = small, poorly fitted or top-dose-only effect, or effect the other way; inactive = flat fitted curve, though single readings scatter; tested in HEK293 cells; about a fifth of its hits are not listed in these tables; note: % is set by controls: 0 for no effect and ±100 for the full control effect; luciferase read-out
RE007 growth inh: less growth of the S. pombe RE007 Vpr strain | S. pombe RE007 Vpr strain, BacTiter-Glo ATP luminescence, 24 h; control for the full effect not named in the record | 360,000 compounds, 0.21% hits | Potency, µM (series often up to 92.2 µM), for the others: at the highest dose activity change, negative = less growth; active = well fitted falling curve with a large enough effect; inconclusive = small, poorly fitted or top-dose-only effect; inactive = no such curve, though single readings can be large or run the other way;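 note: % is set by controls: 0 for no effect and ±100 for the full control effect; nearly all actives have a fitted effect of over 50% in size; the assay follows cell death caused by Vpr and the record does not say whether a fall means rescue or toxicity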
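Fission yeast RE007 carrying one integrated HIV-1 vpr copy, seeded at OD 0.01 in PMG+AL medium with 23 nL pinned compound. Grown 24 h at 30 degrees; viability read by BacTiter-Glo luminescence after 5 min.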
An asterisk follows results filed as active; ? = inconclusive; . = not tested or not shown; [ ] = remark or other dose. Unless noted, calls come from the whole dose curve; as a rule, active means well fitted rising curve with a large enough effect; inconclusive means small, poorly fitted or top-dose-only effect; inactive means no such curve, though single readings can be large or run the other way. Potency is the fitted concentration of half-maximal effect. No enrichment for hits; overall some 4.7% were active at least once.

Structure | Cruzain noTriton | Cruzain inh Det | SARS PLP yeast | StopGo reporter | NS1 function inh | LASV entry inh | Marburg entry inh | RE007 growth inh
COCCN(C(=O)/C=C/c1cccc([N+](=O)[O-])c1)c1c(N)n(Cc2ccccc2)c(=O)[nH]c1=O | . | . | 1% | -10% | 3% | ? | 0% | -13%
CCOc1cc2[nH]c(=S)n(Cc3ccc(C(=O)NCCCN(CC)CC)cc3)c(=O)c2cc1OCC | . | . | 0% | -2% | -6% | ? | ? | -5%
Cc1cccc(NC(=O)c2cnn(C)c2)c1C | -1% | 3.7% | 8% | -21% | 20% | -8% | -14% | 14%
CCc1ccccc1NC(=O)CN1CCCN(Cc2cc(C)ccc2C)S1(=O)=O | 29% | -5.6% | . | ? | . | -2%[46.1 µM] | . | .
O=C(CSc1cn(Cc2ccccc2)c2ccccc12)Nc1nccs1 | ? | -1.8% | -4% | 6% | -1% | . | . | -7%
COc1ccc(/C=C(\NC(=O)c2ccccc2)C(=O)NCc2ccco2)cc1 | . | . | 1% | 15% | 10% | 8% | -25%[46.1 µM] | -5%
CN(C)c1ccc(C2C3C=CC(C3)C2(C#N)C(=O)O)c(Br)c1 (stereo not given) | . | . | 13% | -8% | 9% | -9% | 12%[46.1 µM] | -1%
CCCc1nnc(NC(=O)CCC(=O)N2CCN(Cc3ccc(F)cc3)CC2)s1 | . | . | 3% | -5% | -3% | . | . | -2%
Cc1nn(Cc2cccc(C(=O)N3CCCC(C)C3)c2)c(C)c1[N+](=O)[O-] (stereo not given) | 6% | -3.2% | -17% | ? | -17% | -9% | 11% | 0%
COc1cc(SC#N)ccc1N=Cc1c(C)[nH]n(-c2ccc(Cl)cc2)c1=O | 20µM* | 0.1% | -7% | -4% | 1% | 1% | ? | -21%
C=CCn1c(O)c(C(C)=NCCCN(C)C)c(=O)[nH]c1=O | . | . | 2% | 6% | 0% | 2% | -8% | -5%
CCc1cc2c(=O)[nH]c(N3CCOCC3)nc2s1 | -5% | -3.5% | -19% | 18% | -2% | 16% | 21%[46.1 µM] | 3%
CCCCNS(=O)(=O)c1ccc2nc(-c3cccs3)cc(C(=O)NCC(OC)OC)c2c1 | ? | -4.2% | 10% | . | 29% | -11% | -7% | .
Cc1cc(Br)ccc1OCCCCNCCO | -4% | 1.0% | 8% | -8% | 2% | -12% | ? | 1%
Cc1c(Cl)cc(C(C)C)c(O)c1CN1CCOCC1 | . | . | . | -26% | . | 14% | 3% | 7%
COc1ccc(-c2cc(C(F)(F)F)n3nc(C(=O)NCCCN4CCOCC4)cc3n2)cc1 | . | . | 0% | -21% | 2% | -6% | 12%[46.1 µM] | 5%
COc1cc(OC)cc(C(=O)Nc2cc3c(cc2N2CCCCC2)n(C)c(=O)n3C)c1 | 1% | 0.0% | . | -19% | . | -11%[46.1 µM] | 12%[46.1 µM] | .
O=C(CN1C(=O)NC2(CCCC2)C1=O)OCc1ccccc1F | . | . | 0% | 10% | . | 16% | 15% | -7%
COc1ccc(C(CNC(=O)C(C)Oc2ccc(Br)cc2)N2CCOCC2)cc1 (stereo not given) | . | . | 3% | -14% | . | 7% | 7% | -10%
CCC(C)N(C(=O)Cn1nnc(-c2ccc(Cl)cc2)n1)C1CCS(=O)(=O)C1 (stereo not given) | . | . | 1% | -8% | . | ? | -9% | 8%
O=C(Nc1nccc(-c2cccs2)n1)c1ccccc1Cl | -7% | 5.2% | -1% | 28% | -3% | ? | 20% | -9%
COc1ccc(Cl)c(NC(=O)Nc2c(C)n(-c3ccccc3)c(=O)n2C)c1 | -2% | 2.7% | 4% | -27% | -6% | 5% | -10% | 3%
CC(C)(CCl)C(=O)Nc1ccc(C(F)(F)F)cc1 | . | . | -1% | 6% | . | 2% | -6%[46.1 µM] | -8%
CSC(=S)N(C)C1CCS(=O)(=O)C1 (stereo not given) | 8% | 2.2% | 14% | -5% | 4% | 3% | 20% | .
O=C(CNC(=S)N(Cc1ccc(F)cc1)C1CCCCC1)NC1CC1 | 14% | 3.0% | 0%[6.58 µM] | 16% | 5% | -20% | -4% | 13%
CCOC(=O)C1CCN(S(=O)(=O)c2ccc(C(=O)OC)cc2)CC1 | 30% | 5.9% | . | . | 2% | 3% | 9% | 7%
CC(Sc1nc2ccccc2s1)C(=O)NC1CCCc2ccccc21 (stereo not given) | 11% | -8.0% | -56% | -15% | -18% | 2% | -21% | 6%
Cc1cccc(N2CCN(c3nc4ccc(C(=O)c5ccccc5)cc4n4cnnc34)CC2C)c1 (stereo not given) | -13% | -0.5% | . | -14% | . | . | . | .
Fc1ccc(NC(=S)NCc2ccc3c(c2)OCO3)cc1 | . | . | 0% | 26% | . | 22% | -1% | 8%
Cc1cc(C)cc(C(=O)N2CC(=O)Nc3ccccc32)c1 | -10% | 1.8% | 3% | -7% | 3% | ? | ? | 5%
COC(=O)c1sc(NC(=O)/C=C/c2ccc(OC)c(OC)c2)c(C(=O)OC)c1C | 3% | 0.2% | . | 0% | . | ? | 2%[46.1 µM] | .
COc1ccc(N2CCN(C(CNC(=O)CC(C)(C)C)c3ccc4c(c3)OCO4)CC2)cc1 (stereo not given) | . | . | 7% | 8% | -10% | 11%[46.1 µM] | 10%[46.1 µM] | 5%
CCN(CC)c1ccc(NC(=O)Nc2ccccc2C(F)(F)F)cc1 | 5% | -2.1% | 9% | 42%[activator] | 12% | ? | 7% | -26%
CCCCc1nnc(NC(=O)c2ccc(S(=O)(=O)N3CCOCC3)cc2)s1 | . | . | 3% | -6% | . | 9% | 37% | -14%
COC(=O)c1c(-c2ccco2)csc1NC(=O)C1CC=CCC1C(=O)O (stereo not given) | 1% | -4.2% | -4% | 53%[activator] | ? | 18% | -22% | 10%
Cc1ccc2nc(SCC(=O)Nc3cc(C)on3)c(C)cc2c1 | . | . | -2% | -6% | -9% | -22% | -40%[46.1 µM] | 11%
COc1ccc(Br)cc1S(=O)(=O)NCCN1CCOCC1 | . | . | 0% | 48%[activator] | 2% | 21%[46.1 µM] | ? | 0%
CCCC(C)C(=O)Nc1ccncc1 (stereo not given) | -10% | -3.7% | 0% | 0% | -1% | 0% | -8% | 9%
CN(C)CCNc1nc2c(c(=O)[nH]c(=O)n2C)n1CC(O)COc1ccc(Cl)cc1 (stereo not given) | -6% | -0.2% | 2% | . | 4% | 2% | ? | -4%
CC(C)(CNC(=O)c1cc2ccccc2o1)N1CCOCC1 | 11% | 1.4% | 2% | -15% | -3% | 0% | 24% | -22%
Cc1c(C)n(C)c2ccc(C(=O)NCc3cccs3)cc12 | -10% | -3.4% | -38% | 41%[activator] | -43% | ? | -30% | -17%
CCC1CN(C(=O)Nc2cc(Cl)c(OC)cc2OC)c2ccccc2O1 (stereo not given) | -6% | -2.5% | . | -1% | . | 7%[46.1 µM] | . | .
COc1cccc(-n2sc3c(c2=S)-c2cc(OC)ccc2NC3(C)C)c1 | ? | -0.3% | 3% | -28% | 17% | ? | ? | 117%
CCN(CC)S(=O)(=O)c1cccc(NC(=O)COC(=O)c2cncc(Br)c2)c1 | . | . | 4% | ? | . | 18% | 14% | 5%
O=C(C1CCCN(S(=O)(=O)c2cccc3nsnc23)C1)N1CCN(c2ccccc2Cl)CC1 (stereo not given) | -8% | -2.0% | . | 25µM* | . | ? | 4µM* | .
CCc1ccc(OCc2nnc(SCC(=O)N3CCOCC3)o2)cc1 | . | . | 1% | -10% | 2% | . | . | -5%
CNC(=O)C(NC(=O)Nc1ccc(C)cc1)C(C)(C)C (stereo not given) | . | . | 1% | 0% | 2% | 5% | 4%[46.1 µM] | 8%
CCOc1cccc2cc(-c3cn4cc(C)ccc4n3)c(=O)oc12 | -6% | 0.2% | -1% | -25% | -8% | -11% | -8% | 30%
COC(=O)c1c(C)c2c(C)cc3ccccn3c-2c1C(=O)OC | ? | -11% | 6% | ? | -2% | -22% | -25% | -1%
CN(CC(=O)Nc1c(Cl)cccc1Cl)C(=O)c1sccc1-c1ccccc1 | . | . | 8% | -9% | . | -1% | 16% | -1%
O=C1c2cccnc2C(=O)N1Cc1ccco1 | -11% | 4.9% | -2% | 4% | 0% | ? | 4% | -10%
CCCN(CCC)C(=O)CSc1c2c(nc3ccc(Cl)cc13)CCCC2 | 11% | -14% | . | -13% | . | -2%[46.1 µM] | 14%[46.1 µM] | .
O=C(COC(=O)Cc1cccs1)Nc1cc(S(=O)(=O)N2CCOCC2)ccc1Cl | . | . | 9% | 3% | . | -2%[46.1 µM] | ? | 1%
CCOc1ccc(N(CC)S(=O)(=O)N2CCCC(C(=O)NCc3ccc(Cl)cc3)C2)cc1 (stereo not given) | 20% | -5.5% | . | ? | . | ? | . | .
Cc1ccc2c(cnn2C(=O)CCC(=O)NCc2cccc(Cl)c2)c1 | . | . | 0% | -24% | 0% | . | . | -1%
C=CCc1ccc(OCCCNC2CCCC2)c(OC)c1 | . | . | . | 1% | . | 6%[46.1 µM] | ? | 4%
CCN(c1ccccc1C)S(=O)(=O)c1nnc(NC(=O)c2ccc(OC)c(OC)c2)s1 | -6% | -1.0% | . | -5% | . | 27%[46.1 µM] | . | .
Cc1ccc(S(=O)(=O)NC(CC(C)C)C(=O)N2CCC(C)CC2)cc1 (stereo not given) | . | . | 1% | 19% | -2% | . | . | 9%
CC1(C)O[C@H]2[C@@H](O1)[C@@H](C(=O)Nc1cc(F)ccc1F)O[C@@H]1OC(C)(C)O[C@@H]12 | -1% | -3.8% | . | 19% | . | 2%[46.1 µM] | 12%[46.1 µM] | .
CCOC(=O)N1CCN(C(=O)c2ccc(NS(=O)(=O)c3ccc(C)cc3)cc2)CC1 | . | . | -3% | -26% | 1% | -22% | -23% | 12%
Nc1cc(-c2ccc(Br)cc2)nn1S(=O)(=O)c1cccc2nsnc12 | ? | -2.4% | 1% | -15% | 24% | . | . | -6%
Cc1cc(C)c2oc(C(=O)Nc3sc4c(c3C(=O)NCc3ccco3)CCC4)cc(=O)c2c1 | -6% | -0.8% | . | -10% | . | 25%[46.1 µM] | -4%[46.1 µM] | .
COc1cccc(CNC23CC4CC(CC(C4)C2)C3)c1OCc1ccccc1 | . | . | -1% | ? | -9% | . | . | -4%
